Screening results from PubChem BioAssay.
hNpr1 antagonist: Natriuretic polypeptide receptor (hNpr1) antagonism - Primary qHTS; HEK293 hNpr1 GloSensor cGMP, ANP-stimulated luminescence; Atrial natriuretic peptide receptor 1 (Homo sapiens), P16066; Potency, µM (top dose mostly 46.3 µM), for the others: at the highest dose activity change, negative = inhibition, most hits filed as inhibitors; 1.6% of 76,000 active; active = well fitted inhibition curve with a large enough effect; inconclusive = small, poorly fitted or top-dose-only effect; inactive = no such curve, though single readings can be large or run the other way;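 also: nearly all actives have a fitted effect of over 60% in size; nearly all hits also lower the signal before the agonist is added; a reference antagonist and vehicle were the controls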
Target sequence (P16066 whole entry, looked up): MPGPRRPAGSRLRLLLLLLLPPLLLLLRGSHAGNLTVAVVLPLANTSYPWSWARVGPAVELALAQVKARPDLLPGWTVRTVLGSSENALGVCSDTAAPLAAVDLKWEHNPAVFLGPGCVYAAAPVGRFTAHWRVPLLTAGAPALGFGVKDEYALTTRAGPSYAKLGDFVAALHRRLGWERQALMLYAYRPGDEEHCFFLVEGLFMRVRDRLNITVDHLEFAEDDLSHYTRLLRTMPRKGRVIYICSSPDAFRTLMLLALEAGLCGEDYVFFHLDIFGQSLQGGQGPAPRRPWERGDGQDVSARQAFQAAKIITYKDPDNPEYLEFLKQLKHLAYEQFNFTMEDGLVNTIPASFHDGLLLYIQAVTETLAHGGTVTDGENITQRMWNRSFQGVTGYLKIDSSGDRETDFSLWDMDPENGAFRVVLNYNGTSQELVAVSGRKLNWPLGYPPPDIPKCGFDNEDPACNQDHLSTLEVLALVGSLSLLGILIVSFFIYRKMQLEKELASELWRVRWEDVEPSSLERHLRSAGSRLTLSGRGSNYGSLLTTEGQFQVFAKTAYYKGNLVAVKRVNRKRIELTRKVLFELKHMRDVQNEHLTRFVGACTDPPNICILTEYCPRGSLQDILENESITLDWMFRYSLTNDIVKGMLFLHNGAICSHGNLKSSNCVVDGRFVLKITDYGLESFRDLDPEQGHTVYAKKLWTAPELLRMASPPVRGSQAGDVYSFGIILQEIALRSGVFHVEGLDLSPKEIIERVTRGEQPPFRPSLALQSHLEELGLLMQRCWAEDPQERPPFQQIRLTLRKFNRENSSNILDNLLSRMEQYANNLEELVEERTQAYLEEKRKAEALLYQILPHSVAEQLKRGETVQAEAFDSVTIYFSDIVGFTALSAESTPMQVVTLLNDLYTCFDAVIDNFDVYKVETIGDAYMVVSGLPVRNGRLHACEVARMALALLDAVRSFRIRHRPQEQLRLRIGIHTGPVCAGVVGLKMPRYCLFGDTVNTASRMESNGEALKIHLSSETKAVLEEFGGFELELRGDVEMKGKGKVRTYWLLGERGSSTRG
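HEK293 cells stably expressing human Npr1 and cGMP GloSensor pGS-40F, loaded 2 h with 2% GloSensor reagent, given compound 30 min at room temperature. Luminescence read before and 20 min after 0.1 nM hNppA.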
Active calls of the source: *; u = inconclusive; & = joins results of further samples; [ ] = remark or other dose. % is scaled to controls: 0 for no effect and ±100 for the full control effect; potency is read from the fitted curve at half-maximal effect. Only part of the results is shown, so the mix of outcomes need not match the whole.

Sample of the layout (five entries):
hNpr1 antagonist | SMILES
-9% | O=C(c1ccncn1)N1C[C@@H](COCC2CC2)[C@H](c2ccccn2)C1
-11% | c1ccc(C2CCCN(CCn3ccnc3-c3cc4n(n3)CCNC4)C2)cc1 (centres undefined)
-1%[70.6 µM] | N#Cc1cccc(CN2C[C@H](O)C[C@H]2c2nc(-c3cccc([N+](=O)[O-])c3)no2)c1
8% | O=C(C1CCN(C(=O)N2CC3CC(C2)[C@H]2CCCC(=O)N2C3)CC1)N1CCN(c2ccccc2)CC1 (some centres undefined)
-12%[70.6 µM] | CN1CC[C@H](c2nc3ccc(C(F)(F)F)cc3[nH]2)C1

The listing, repeating the preview:
hNpr1 antagonist | SMILES
-9% | O=C(c1ccncn1)N1C[C@@H](COCC2CC2)[C@H](c2ccccn2)C1
-11% | c1ccc(C2CCCN(CCn3ccnc3-c3cc4n(n3)CCNC4)C2)cc1 (centres undefined)
-1%[70.6 µM] | N#Cc1cccc(CN2C[C@H](O)C[C@H]2c2nc(-c3cccc([N+](=O)[O-])c3)no2)c1
8% | O=C(C1CCN(C(=O)N2CC3CC(C2)[C@H]2CCCC(=O)N2C3)CC1)N1CCN(c2ccccc2)CC1 (some centres undefined)
-12%[70.6 µM] | CN1CC[C@H](c2nc3ccc(C(F)(F)F)cc3[nH]2)C1
-2% | CCCCOCCCNC(=O)c1c(C)noc1-c1ccc(OC(F)(F)F)cc1
-3%[70.6 µM] | Cc1ccc2c(n1)N(C)[C@H](CO)CCN(Cc1ccc(F)c(F)c1)C2
4µM* | Clc1cnccc1CN1CCNc2cnc(Oc3ccccc3)cc2C1
-7% | CCc1nncn1C1CCN(S(=O)(=O)c2ccc(OC)cc2)CC1
-3% | CNc1nccc(N2CCC(CC(=O)NCc3nc4ccccc4n3C)CC2)n1
2% | COc1ccc(-c2ccc3nnc(CNC(=O)c4ccccc4Cl)n3n2)cc1
-1% | NC(=O)C1(NC(=O)c2ccc(S(=O)(=O)N3CCCC(O)C3)cc2)CCCC1 (centres undefined)
-15%[70.6 µM] | O=C1CO[C@H]2CCN(Cc3ccncc3)CC[C@@H]2N1Cc1ccccc1
-25% | C[C@H]1CN(C(=O)Nc2ccc(F)cc2F)C[C@@H]1c1nc(-c2ccccc2)no1
3% | CC1=NS(=O)(=O)N(C)C=C1C(=O)OCc1nc(C)no1
-4% | Cc1noc(C)c1NC(=O)N[C@@H]1C[C@H](COc2ccc(S(C)(=O)=O)cc2)[C@@H](O)[C@H]1O
-21%[70.6 µM] | O=C(Nc1ccccc1)N1Cc2[nH]cnc2C[C@H]1c1nc(-c2ccccc2)no1
0% | O=C(Nc1ccc2c(c1)OCCO2)N1CCCC1c1nc(CCOCC2CCCC2)no1 (centres undefined)
-10% | Cc1ccc(CNC(=O)CC2CCOCC2)o1
-10% | COc1cc(OC)cc(C(=O)N2CCC3(CC2)N=C(c2ccc(C)cc2)NO3)c1
1% | COc1cccc(CN2CC3(C2)C(=O)N(Cc2cccc(Cl)c2)C(=O)[C@@H]2C[C@@H](O)CN23)c1
1%&3% | COCC(=O)N1CCC2(C1)C(=O)N(CCc1ccccc1)c1ccccc12 (centres undefined)
1% | C[C@@H]1CCC[C@H](C)N1CC(=O)N1CCn2nc(Cc3ccccc3)cc2C1
2%[70.6 µM] | CC(C)(C)C(=O)N1CCCN(c2nc3ncccc3o2)CC1
-11% | CN(Cc1ccccc1)C1CCOC2(CCN(C(=O)CCc3nc4ccccc4[nH]3)CC2)C1 (centres undefined)
-25%[70.6 µM] | O=C(Cc1ccc(Cl)cc1)NCC1COc2ncncc2C(=O)N1Cc1ccccc1 (centres undefined)
-2% | O=C(NC1C[C@H]2CC[C@@H](C1)N2C(=O)c1ccc(Br)o1)c1ccncc1 (some centres undefined)
10% | Cn1nc(NC(=O)C2CCS(=O)(=O)C2)c2c(Oc3cccnc3)cccc21 (centres undefined)
9% | CNc1nc2c(c(C(=O)N3CCCC3)n1)CN(C(=O)Cn1nccc1C)CC2
-1% | CC(C)CCNC(=O)c1ccc2c(c1)N(S(=O)(=O)c1ccccc1)CC2
-2% | O=C(CC1CCOCC1)NCC1CCN(Cc2cccc(F)c2)CC1
-8% | CC(C)c1noc(-c2ccn3c(CNC(=O)Cc4ccc(F)cc4)nnc3c2)n1
u | O=C(NC1CCN(c2cc(-c3ccc(Cl)cc3)[nH]n2)C1)c1ccc(F)cc1F (centres undefined)
5% | Cc1ccc(CNC(=O)Cn2ccn3nc4c(c3c2=O)CC(C)CC4)cc1 (centres undefined)
-19% | CCCN(CC1CCOC1)C(=O)Nc1cccc(Br)c1 (centres undefined)
2% | COc1ccc(NC(=O)N[C@H]2CCN3C(=O)[C@@H](Cc4ccc(Cl)cc4)NC(=O)[C@@H]3C2)cc1
u | Cc1ccc([C@H]2C[C@@H](O)[C@@H](O)[C@@H]2NC(=O)c2ccccn2)cc1
-17% | Cc1noc(C)c1Cc1ccc(C(=O)NCC2Cn3cccc3C(=O)N2C)o1 (centres undefined)
-2% | Cc1oc(-c2cccc(C(F)(F)F)c2)nc1CN(C)Cc1ccon1
1%[70.6 µM] | CCOCCN1C(=O)COC[C@@H]1[C@H](O)c1ccc(NC(=O)c2cccnc2)cc1
3% | CN(CC(=O)N1CCc2c(c(-c3nncn3-c3ccccc3)nn2C)C1)S(=O)(=O)c1cnc[nH]1
1% | O=C([C@H]1C[C@H](Oc2ccccc2)CN1C(=O)Nc1ccccc1)N1CCOCC1
4% | CS(=O)(=O)N1CCCN(Cc2cn[nH]c2-c2ccc(F)cc2)CCNC(=O)CC1c1ccccc1 (centres undefined)
5% | CCN(CC)Cc1cnc2c(C(=O)N(C)C3Cc4ccccc4C3)cnn2c1
-3% | O=C(NCCc1ccncc1)C1CN(C(=O)CCC2CCCC2)CC12CCOCC2 (centres undefined)
-1% | Cc1cc(C)cc(NC(=S)N[C@H]2CO[C@H]3[C@@H]2OC[C@@H]3n2nnnc2Oc2cccc(N(C)C)c2)c1
-2% | CCC(CC)C(=O)N1CCC(N2C(=O)CCC2C(=O)NCc2ccccc2)CC1 (centres undefined)
5% | O=C(Cn1nc2n(c1=O)CCCC2)Nc1ccc(Cl)cc1

Quoted at random: 2 records from the list, in no set order.
hNpr1 antagonist | SMILES
4% | CS(=O)(=O)N1CCCN(Cc2cn[nH]c2-c2ccc(F)cc2)CCNC(=O)CC1c1ccccc1 (centres undefined)
5% | CCN(CC)Cc1cnc2c(C(=O)N(C)C3Cc4ccccc4C3)cnn2c1

Remaining list, next part.
hNpr1 antagonist | SMILES
17%&0% | COc1ccc(N2CC(C(=O)N3CCC(C(=O)NCc4cccs4)C3)NC2=O)cc1 (centres undefined)
26%[70.6 µM] | O=C(NCC(F)(F)F)C1CN(c2ccc(F)cc2)C(=O)N1 (centres undefined)
9% | Cn1nnnc1C1CCCN(C(=O)c2ccc3cc[nH]c3c2)C1 (centres undefined)
-8%[70.6 µM] | O=C(COc1ccccc1)N1CCNc2cnc(Nc3cccc(F)c3)nc2C1
4% | Cc1cnn(CC(=O)N2CCc3nn(Cc4ccccc4)c(=O)n3CC2)c1
4% | COCC(=O)N(C1CCOCC1)C1CCN(C(=O)c2cccnc2C)CC1
3% | CN1CC2(CCN(C(=O)Cn3c(=O)oc4ccccc43)CC2)CC1C(=O)N1CCOCC1 (centres undefined)
0% | O=C1CCN(C(=O)[C@@H]2CCCN2S(=O)(=O)c2cccs2)CCCCCCN1
0% | COc1ccc(Cl)cc1S(=O)(=O)N1CCc2nn(CC3CC3)c(=O)n2CC1
-20% | COCC(=O)Nc1ccc(-c2noc([C@@H]3CCCN3Cc3ccc(OC(F)(F)F)cc3)n2)cn1
4% | COCCOCc1nc(C2CCN(S(=O)(=O)c3c(C)noc3C)CC2)no1
0% | O=C(Cn1ccn2nc(-c3ccc(F)cc3)c(CO)c2c1=O)Nc1cccc(Cl)c1
9% | CC(Oc1ccccc1)C(=O)NCc1nnc2ccc(-c3ccc(F)cc3)nn12 (centres undefined)
4%[70.6 µM] | CS(=O)(=O)c1ccc(CN2CCOC[C@H]2c2ncc(-c3ccncc3)[nH]2)cc1
-4% | Cc1ccc(-c2cc3c(=O)n(CCNC(=O)c4ccc5ccccc5n4)ccn3n2)cc1C
0% | CN(Cc1ccc(OC(F)(F)F)cc1)Cc1ccccc1C(F)(F)F
3% | COc1ccc(-c2nc(C)nc3c2CCN(Cc2cccc4ccccc24)CC3)cc1
-2% | CN(C)c1ccc(C(=O)N[C@H]2C[C@H]3C(=O)NC[C@@H](CCC(=O)N4CCc5ccccc54)N3C2)cc1
-9% | COc1ccccc1NC(=O)Cn1c(=O)n(-c2ccc(F)cc2)c(=O)c2c1cc(C)n2C
-23%[70.6 µM] | c1cncc(Nc2cc3c(cn2)CN(Cc2ccc4[nH]ccc4c2)CCN3)c1
u | CCN1CCN(C(=O)C2CCCN(C(=O)c3ccccc3)CCC(=O)NCC2)CC1 (centres undefined)
0% | O=C(N[C@H]1CCOC[C@H]1C1CCOCC1)c1ccc(-n2ccnc2)cc1
11µM* | Cc1ccc(CN2C[C@@H](CO)[C@H](c3nc(-c4ccncc4)no3)C2)cc1
0% | CCc1cc(C(=O)N[C@H](c2ccc(OC)nc2)C2CC(O)C2)ccn1 (some centres undefined)
13µM* | CC1(c2noc(C3CCOCC3)n2)CCN(Cc2ccc(Cl)cc2F)CC1
0% | Cc1cnn(CC(=O)N2CC(F)(F)C[C@H]2c2nc(C3CC3)no2)c1
-4% | O=C(CN1CC2CC(C1)[C@H]1CCCC(=O)N1C2)NCCCN1CCOCC1 (some centres undefined)
0% | O=C(c1ccccc1F)N1CCC2(CC1)Cc1ccccc1NC2=O
-3% | COc1cccc(CN2CCC3(CC2)CC(O)CCO3)c1 (centres undefined)
7.1µM* | CC(C)c1cc(C(=O)NC2CCN(c3ncccc3C#N)CC2)n(C)n1
13% | CC(C)NC(=O)N1CCC(Oc2ccccc2-c2nc(-c3ccccc3)no2)C1 (centres undefined)
11µM* | CSc1cccc(NC(=O)Cn2c(N3CCC(C)CC3)nc(C)cc2=O)c1
5%[70.6 µM] | COC(=O)[C@H](Cc1ccc(OC)cc1)NC(=O)[C@@H]1CNCCN1C(C)=O
6%[70.6 µM] | CN(C)Cc1cc(C[C@@H]2C[C@H](N(C)C)C2(C)C)no1
-17%[70.6 µM] | Cc1cc(C)c(CNC(=O)c2nc(-c3cccnc3)cc3[nH]ccc23)c(=O)[nH]1
0% | CCc1cccc(NC(=O)c2ccc3c(c2)N(C)C2CCCCCN2C3=O)c1 (centres undefined)
13% | FC1(F)CN[C@H](c2nc(C3CC3)no2)C1
-4% | Cc1nc([C@@H]2CN(C(=O)c3cccc(C#N)c3)C[C@H]2C(N)=O)n[nH]1
1% | Fc1cc(F)cc(Cc2nc3nccc(-c4cccnc4)n3n2)c1
3% | CC(=O)N1CCC(C(=O)NC2CCN(c3cc(-c4ccccc4)[nH]n3)CC2)CC1
u | Cc1ccc(S(=O)(=O)N2CCCC(CCC(=O)NC3CCCCC3)C2)cc1 (centres undefined)
4% | O=C1CC(Cc2ccccc2)CN1CC(=O)N1CCOC2(CCCC2)C1 (centres undefined)
-17% | COc1ccc2[nH]cc(CCNC(=O)CCC3CCN(C(=O)c4ccc(C)cc4)CC3)c2c1
13% | CN(C)CCN(C)[C@@H]1[C@H](O)[C@H](CO)O[C@@H]1CNC1CCN(C)CC1
0% | COCCn1c(CO)nnc1C1CC(NC(=O)c2cc(C)n3nc(C)cc3n2)C1 (centres undefined)
1% | O=C(NCc1ccncc1)C1CN(Cc2ccco2)CC12CCOCC2 (centres undefined)
-8% | C=CCCC(CN1CCCOCC1)Oc1ncc(Cl)cn1 (centres undefined)
2% | O=C(NC[C@H]1O[C@@H]2C[C@@H](CC(=O)N3CCC(F)(F)C3)O[C@@H]2[C@@H]1O)Nc1ccc(F)cc1

Exported tab-delimited: entries from further up.
molecule	hNpr1 antagonist
O=C1CC(Cc2ccccc2)CN1CC(=O)N1CCOC2(CCCC2)C1 (centres undefined)	4%
CC(=O)N1CCC(C(=O)NC2CCN(c3cc(-c4ccccc4)[nH]n3)CC2)CC1	3%
COc1ccc2[nH]cc(CCNC(=O)CCC3CCN(C(=O)c4ccc(C)cc4)CC3)c2c1	-17%

Next results
hNpr1 antagonist | SMILES
16% | Cc1cn2nc(C(=O)NCCC3=CCCCC3)cc2c(N2CCCC2)n1
-9% | O=C(CCc1ccccc1)N1CCC2(CC1)CC(N(Cc1ccccc1)C1CC1)CCO2 (centres undefined)
-1%[70.6 µM] | Cc1ccccc1CN1Cc2nc(-c3c(C)noc3C)ccc2OCC1=O
-8%[70.6 µM] | CC[C@H]1CN(C(=O)C(C)(C)C)CC[C@H]1CC(=O)NCc1ccccc1
-13% | COCCn1cc2c3c(cccc31)CN(C(=O)c1cccc(Cl)c1)CC2
11µM* | O=C(c1ccc(F)c(F)c1)N1CCC(n2cc(-c3nc(-c4ccccc4)no3)nn2)C1 (centres undefined)
-19% | CC(C)c1noc(-c2cn(C3CCN(C(=O)c4cc(F)ccc4F)CC3)nn2)n1
-3% | CN1CC(=O)N(C2CCC2)Cc2c1ncnc2N1CCC(N2CCCCC2)CC1
1%[70.6 µM] | CCCNC(=O)N[C@@H]1C[C@H](Cn2cc(C3CC3)nn2)[C@@H](O)[C@H]1O
-4% | COc1cc(CN2C[C@@H]3C(=O)N(CCCN4CCCC4=O)C(=O)[C@@H]3C2)cc(OC)c1
-1% | O=C(O)CCC1CCCN(S(=O)(=O)c2ccccc2F)C1 (centres undefined)
5% | N#Cc1ccccc1CN1C(=O)NC(c2cccnc2)(C2CCNCC2)C1=O (centres undefined)
-4% | O=C(Nc1ccc(F)cc1)N1CCOc2ccc(CN3CCc4ccccc4C3)cc2C1
0% | C=CCN1CC(C(=O)N2CCn3nc(Cc4ccccc4)cc3C2)CC1=O (centres undefined)
